# Screening results from PubChem BioAssay.
# HPGD inh – blocks human HPGD enzyme activity; Potency, µM, for the others: top-dose activity change, negative = inhibition, usual class: inhibitors; 150,000 tested, 4.3% active; purified HPGD, NADH fluorescence kinetic, PGE2 substrate; active = well fitted inhibition curve with a large enough effect (not every such curve was filed as active); inconclusive = small, poorly fitted or top-dose-only effect, or another doubt; inactive = no such curve, though single readings can be large or run the other way;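 further: top concentration of the series not given in the record; plate controls included wells without enzyme; inactives centre near -10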
# Target sequence (P15428 whole entry, looked up): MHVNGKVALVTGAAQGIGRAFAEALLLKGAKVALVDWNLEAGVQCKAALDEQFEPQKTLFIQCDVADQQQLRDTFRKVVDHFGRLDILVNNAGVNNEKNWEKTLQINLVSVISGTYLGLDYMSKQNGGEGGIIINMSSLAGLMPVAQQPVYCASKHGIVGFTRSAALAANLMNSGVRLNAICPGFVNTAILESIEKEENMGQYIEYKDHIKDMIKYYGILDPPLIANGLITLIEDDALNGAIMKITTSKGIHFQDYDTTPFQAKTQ
#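 NADH formation kinetics: reaction with 30 uM PGE2 and 1 mM NAD+ (final), 20 nM enzyme, Tris-HCl pH 8 with Tween 20, after 15 min compound preincubation at room temperature. Fluorescence change, last versus first of five reads.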
# * = called active by the depositor; ? = inconclusive. On the % scale 0 is the no-effect control and ±100 the full control effect; potency means the concentration at half of the fitted maximal effect. This is a subset (hit frequency here may not be typical).
SMILES,HPGD inh
COC(=O)N1CCC2(CCN(Cc3ccccc3OC)CC2)CC1,-5.4%
O=C(CCNS(=O)(=O)c1cccs1)N1CCc2ccccc2C1,-5.3%
N#CC1=C(N)C(C#N)(C#N)C(c2cccnc2)C2CCCC=C12 (stereo unspecified),-27.9%
c1ccc(OCc2nn3c(C4CCCCC4)nnc3s2)cc1,-23.0%
COc1cccc(/C=N/NC(=O)CCCC(=O)NC2CCCCC2)c1,-5.7%
O=C(N/N=C/C=C/c1ccc([N+](=O)[O-])cc1)C1COc2ccccc2O1 (stereo unspecified),-24.9%
CCOC(=O)c1nn(-c2ccccc2)c(C)c1C(C)=O,-6.8%
CC(CCc1ccccc1)NC(=O)c1ccco1 (stereo unspecified),-17.2%
COc1ccc(Cl)cc1NC(=O)c1nc2nc(C)cc(C(F)F)n2n1,-11.0%
Cc1ccc(S(=O)(=O)N2CCCC(C(=O)NCc3ccco3)C2)cc1Cl (stereo unspecified),2.9%
COc1ccc(CC(=O)NNC(=O)COc2ccc(Br)cc2C)cc1OC,-1.1%
O=c1c(-c2ccc(O[C@@H]3O[C@H](CO)[C@@H](O)[C@H](O)[C@H]3O)cc2)coc2cc(O)cc(O)c12,-17.5%
CC(C)(C)NC(=O)NC(=O)COC(=O)CCC1CCCCC1,-13.5%
CCOc1ccccc1NC(=O)N1CCC(c2nc3ccc(C)cc3[nH]2)CC1,-8.9%
CCCN1CCN(C(c2cc3cc(OCC)ccc3[nH]c2=O)c2nnnn2C2CCCCC2)CC1 (stereo unspecified),?
Cc1ccc(S(=O)(=O)Nc2cc(C(=O)Nc3cc(C)cc(C)c3)ccc2Cl)cc1,-8.9%
CC(NC(=O)CSc1nnc(COc2ccccc2)o1)c1ccccc1 (stereo unspecified),-6.7%
COC(=O)c1cc(NC(=O)c2cccc(C(F)(F)F)c2)c(=O)oc1C/C=N/OCc1cccc(Cl)c1Cl,-12.8%
COc1ccc(/C=C/c2ccncc2)cc1,?
COC(=O)c1cccc(NC(=O)CSc2nc(=O)cc(N)n2-c2ccccc2)c1,-25.1%
O=C(Cn1ncc2c1-c1ccccc1OC2)N1CCN(Cc2ccc3c(c2)OCO3)CC1,-6.6%
CCCCNC(=O)C1CCC(CNS(=O)(=O)c2ccc(NC(C)=O)cc2)CC1 (stereo unspecified),-26.6%
O=C1CCSc2ccc(Cl)cc2N1Cc1ccc(Cl)cc1,-25.1%
O=C(CCCC1=NS(=O)(=O)c2ccccc2N1)N1CCN(c2ccc(Cl)cc2)CC1,0.3%
COCCNC(=O)c1c(N)n(-c2cccc(C)c2)c2nc3ccccc3nc12,?
SMILES,HPGD inh
Cc1[nH]nc2c1C(c1ccsc1)C(C#N)=C(N)O2 (stereo unspecified),-23.3%
CCn1c(=O)cc(OCC(=O)NCc2cccnc2)c2ccccc21,-13.4%
COc1cccc(-n2c(C)nc3c(cnn3-c3ccc(C)cc3)c2=O)c1,-0.6%
Fc1ccc(Oc2nc(-c3ccccc3)nnc2C(F)(F)F)cc1,-6.9%
CN(Cc1cccc(Cl)c1Cl)C(=O)c1ccc(NC(=O)CC#N)cc1,17.8µM*
NCc1nnn(Cc2ccccc2)c1N,0.7%
COc1ccc(-c2nnc(SCC(=O)Nc3ncc(C)s3)n2-c2ccccc2)cc1OC,-9.6%
COCCn1c(Cc2ccccc2)nnc1SCc1ccc([N+](=O)[O-])cc1,1.6%
COc1ccccc1NC(=O)CCc1c(C)[nH]c(=O)c(C#N)c1C,-22.6%
CN(C)CCCn1c2ccccc2c2cnccc21,-4.0%
C=CCc1cccc(/C=N/NC(=O)CCCNc2ccc(C)cc2)c1O,-12.3%
O=C(Nc1ccccc1SCC1CSc2nc3ccccc3c(=O)n21)c1cccc(Cl)c1 (stereo unspecified),-11.3%
O=C(O)c1cc(C(=O)C(=O)c2cc(C(=O)O)c(O)c3ccccc23)c2ccccc2c1O,4.47µM*
CCn1c(SCC(=O)N2CCN(S(=O)(=O)c3ccccc3)CC2)nnc1-c1cccs1,-4.0%
Cc1nc(CS(=O)(=O)c2ccc(Cl)cc2)cc(Sc2ccccc2Cl)n1,-2.5%
CCn1ncc([N+](=O)[O-])c1C(=O)Nc1ccc(C(=O)N2CCCCC2)cc1,2.24µM*
CCCCC(=O)c1ccc(O)cc1,-10.0%
CC(C)NC(=O)CCCn1c(=S)[nH]c2cc3c(cc2c1=O)OCO3,-21.4%
COc1ccc(-c2oc3ncn(Cc4ccco4)c(=N)c3c2-c2ccc(OC)cc2)cc1,?
O=c1cc(N2CCCCC2)c(-c2ccccc2)nn1Cc1ccc(Cl)cc1,-0.2%
CC(=O)C1=C(c2ccccc2)NC(=O)NC1c1ccccc1OCC(=O)Nc1ccccc1 (stereo unspecified),-3.2%
Cc1cc(C(=O)O)sc1C(N)C(=O)O (stereo unspecified),-10.8%
COC(=O)c1sccc1NC(=O)c1c(C)c(-c2cccc(Cl)c2)nc2ccccc12,-13.3%
O=C(c1csnn1)N1CCC2(CC1)CCN(c1ccccn1)CC2,-22.8%
CC(=O)Nc1ccc(S(=O)(=O)N2CCC(N(C)CCC(C)C)CC2)cc1,-0.5%
SMILES,HPGD inh
C[C@@H](N=C(N)N)C(=O)O,-13.0%
Cc1nn(-c2ccc(Cl)cc2)c2sc(C(=O)N3CCN(c4ccccn4)CC3)cc12,?
O=S(=O)(Nc1nc2ccccc2nc1N1CCc2ccccc2C1)c1ccc(Br)cc1,-23.1%
Cc1ccsc1C1Nc2ccc3ncccc3c2C2=C1C(=O)CC(C)(C)C2 (stereo unspecified),?
C#C[C@]1(O)CC[C@H]2[C@@H]3CCC4=C(CCC(=O)C4)[C@H]3CC[C@@]21C,-5.4%
COC(=O)c1ccccc1N=C(SC)N(C)C,?
CCn1c(SCC(=O)NCc2ccco2)nnc1-c1c[nH]c2ccccc12,-18.4%
CCOC(=O)N1C(=O)C2(CCCCC2)N(c2ccccc2Cl)C1=S,-14.7%
COC(=O)C(C(C)=O)C1=C/C(=N\S(=O)(=O)c2ccc(C)cc2)c2ccccc2C1=O (stereo unspecified),-19.8%
CCCN1C(=O)c2ccc(C(=O)Nc3nccs3)cc2C1=O,0.3%
O=C(NCCN1CCCCC1)c1cc2ccccc2[nH]1,-16.6%
CSC1=N/C(=C\c2ccc(C)s2)C(=O)S1,-4.8%
Cc1ccc2c(c1)/C(=N/OC(=O)c1ccc(F)cc1)CCS2,?
COc1ccc(C(=O)CSc2n[nH]c(-c3ccco3)n2)cc1,3.55µM*
CCCCN(CC)CCCNC(=O)Cn1nc(Cc2ccncc2)c2ccccc2c1=O,-5.6%
c1ccc(C(c2ccccc2)N2CCCC3(CCNCC3)C2)cc1,-2.0%
Cc1ccc2nsnc2c1S(=O)(=O)NCCc1c(C)[nH]c2ccc(F)cc12,-2.4%
Cc1nc(Nc2nc3ccccc3o2)nc2c1CCC2,-12.8%
CCOc1cc(/C=N\NC(=O)C2C(=O)NCC2c2ccccc2)ccc1OC (stereo unspecified),-29.5%
COc1ccc(-c2nnc(SCC(=O)NCc3cccs3)n2C(C)C)cc1,-3.2%
Cc1oc(-c2ccc(Cl)cc2)nc1CN1CCCC(C(=O)NCCCN2CCOCC2)C1 (stereo unspecified),-2.3%
CCOC(=O)c1ccc(NC(=O)Cn2nnc(-c3ccc(C)cc3)n2)cc1,-6.5%
CN(C)c1ccnc(NCc2ccccc2)c1C#N,14.1µM*
O=C(CN1CCCCCCC1)N/N=C/c1ccc(F)c(F)c1,-1.3%
O=[N+]([O-])c1ccc(Cl)c(/C=N/NC(=S)Nc2ccccc2)c1,-11.5%
SMILES,HPGD inh
O=C(Nc1nnc(COc2ccc(Cl)cc2)s1)C1CCCO1 (stereo unspecified),17.8µM*
O=C(CCN1C(=O)c2ccccc2C1=O)Nc1ccc(F)cc1,-13.8%
O=S(Cc1ccc(Cl)cc1)CC(O)(c1ccccc1)c1ccccc1 (stereo unspecified),-3.1%
COC(=O)Nc1sc2c(c1C(=O)NCc1ccco1)CCCC2,-19.2%
Cc1ccc(N2C(=O)N(CC(=O)N3CCCc4ccccc43)C(=O)C2C)cc1 (stereo unspecified),-3.8%
CC(C(=O)Nc1ccccc1)c1ccc(-c2ccccc2)c(F)c1 (stereo unspecified),-21.4%
CC(NC(=O)NCCCn1ccnc1)(C(F)(F)F)C(F)(F)F,-1.3%
Cc1ccc(C(=O)Nc2cc(=O)n(C)c(=O)n2C)cc1C,-3.0%
CC(C)(C)n1nnnc1CN1CCN(C2CCCC2)CC1,-3.8%
Cn1c(C(=O)N2CCN(Cc3ccc4c(c3)OCO4)CC2)cc2c(=O)n(C)c3ccccc3c21,-18.0%
CCC(=O)n1nc(-c2ccco2)nc1SCc1ccccc1,12.6µM*
Cc1cccc(Cn2cnc3c(nnn3Cc3ccc(F)cc3)c2=O)c1,14.1µM*
CN1CCN(C(=O)CC23CC4CC(CC(C4)C2)C3)CC1,-2.6%
CCOC(=O)c1[nH]c(C)c(C(=O)NC(C)CC)c1C (stereo unspecified),-10.8%
CCC1(CC)NC(=O)NC1=O,5.4%
Nc1ccc(/C=C/C(=O)c2ccco2)cc1,-13.8%
CCOC(=O)c1c(C)[nH]c(C(=O)COC(=O)C(C)Oc2ccc(Cl)cc2Cl)c1C (stereo unspecified),-3.3%
CCOC(=O)Cn1cnc2c(nnn2Cc2ccc(Cl)cc2)c1=O,-12.8%
COc1ccc(S(=O)(=O)N2c3ccccc3OCC2c2ccccc2)cc1 (stereo unspecified),-1.4%
CCCOC(=O)CSC1=C(C#N)C(c2ccccc2OCC)C(C#N)C(=O)N1 (stereo unspecified),3.2%
CCN(CC)CCNC(=O)c1ccc(Cl)c(S(=O)(=O)Nc2ccccc2OC)c1,-1.8%
O=C1CCCc2c1cc(C(=O)NCCCN1CCOCC1)c(=O)n2-c1ccc(Cl)cc1,-7.9%
Cc1cccc2sc(NNC(=O)C3COc4ccccc4O3)nc12 (stereo unspecified),28.2µM*
O=C(CSc1ncc(-c2ccccc2)nn1)NCc1ccco1,-23.6%
Cc1c(Cl)cccc1NC(=O)CNc1cccc(S(=O)(=O)N(C)C)c1,-3.6%
SMILES,HPGD inh
COc1ccc(CNC(=O)C(=O)NCC2OCCN2S(=O)(=O)c2cccs2)cc1 (stereo unspecified),-3.7%
COC(=O)c1[nH]c2cccc(C)c2c1NC(=O)CN1CCN(C(=O)c2ccco2)CC1,?
Cc1ccc(OCC(=O)Nc2ccc(N(C)C)cc2)cc1,-7.3%
COC(=O)c1ccc(C23CC4(C2)[C@H](CN(C)[C@@H]4c2ccccc2)C3c2ccc(C(F)(F)F)cc2)cc1 (stereo partly specified),-6.3%
COc1ccc(/C=C/C(=O)NCCc2ccc(S(N)(=O)=O)cc2)cc1,-6.6%
COc1ccc(-n2c(SCC(=O)NNC(=O)c3ccc(C)cc3)nnc2-c2ccncc2)cc1,-11.3%
N#Cc1c(C(F)(F)F)cc(-c2ccccc2)nc1SCC(=O)N1CCOCC1,?
CCC(=O)Nc1sccc1C(=O)OC,-9.6%
Nc1nc(NCC2CCCO2)nc(NCC2CCCO2)c1[N+](=O)[O-] (stereo unspecified),-5.4%
Brc1ccc(CSc2nnc(-c3cnccn3)n2Cc2ccco2)cc1,-21.1%
CCN(C(=O)CSc1nc(-c2ccccc2)c(-c2ccccc2)[nH]1)C1CCS(=O)(=O)C1 (stereo unspecified),?
CN1CCC2(CCN3CCc4c(oc5ccccc45)C3C2)N(C)C1=O (stereo unspecified),-26.5%
CCc1ccc(NC(=O)CN(c2cccc(C)c2)S(C)(=O)=O)cc1,-2.3%
CC(Oc1ccc(-c2ccccc2)cc1)C(=O)N1CCOCC1 (stereo unspecified),2.6%
CC1=C(C(=O)OCc2ccccc2)C(c2ccc(C)o2)C2=C(CCCC2=O)N1 (stereo unspecified),-11.4%
Cc1ccc(NC(=O)COc2ccc(-n3cnnn3)cc2)cc1C,3.3%
O=C(c1ccccc1F)N1CCc2ccccc21,-2.4%
COc1ccccc1/C=N/NC(=O)C(C)Cn1cnc2ccccc21 (stereo unspecified),-2.3%
Cc1cccc2cc(C(c3nnnn3CC3CCCO3)N3CCc4ccccc4C3)c(=O)[nH]c12 (stereo unspecified),-23.6%
O=C(OCc1ccccc1)C1CCCN1C(=O)c1cccs1 (stereo unspecified),-1.8%
CCN(CC)CCOC(=O)c1c(C)oc2ccc(O)cc12,-6.0%
